Source: PubChem BioAssay
GIV-Gai inh = inhibitors of GIV GBA-motif binding to rat Galpha-i3. AID 1224905. Galpha-i3/FITC-GIV peptide fluorescence polarization, 90 min; active compounds read low; scaled: aluminum fluoride 0%, vehicle 100%. 0.42% of 210,000 active. P08753. percent of control (FP), % (no concentration beside the values);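 active = replicate mean at 85% of control or lower, very high polarization wells dropped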;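 note: wells of about 15 µL received 100 nL stock; the first replicate is given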
Target sequence (P08753 whole entry, looked up): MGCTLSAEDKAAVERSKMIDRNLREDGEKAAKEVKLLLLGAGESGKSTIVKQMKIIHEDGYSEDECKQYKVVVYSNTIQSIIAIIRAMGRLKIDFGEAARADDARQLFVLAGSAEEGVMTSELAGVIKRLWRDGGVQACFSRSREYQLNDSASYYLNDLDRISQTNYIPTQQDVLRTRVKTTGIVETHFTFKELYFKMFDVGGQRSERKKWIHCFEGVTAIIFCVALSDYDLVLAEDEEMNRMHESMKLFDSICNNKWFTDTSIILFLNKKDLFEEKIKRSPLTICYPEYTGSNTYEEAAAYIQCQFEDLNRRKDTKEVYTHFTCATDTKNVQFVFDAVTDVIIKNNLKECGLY
HCMV UL50-53 inh = cytomegalovirus nuclear egress complex inhibition; HTRF UL50-UL53 interaction, normalized percent inhibition; inhibition, % (concentration not given with the values); 0.15% of 190,000 active;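 active = both replicates at 50% or more, plus weaker picks with an unusually low signal ratio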;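 note: stock transfer was 100 nL into about 20 µL; 0% = negative control wells and 100% = wells with untagged competitor protein; inactives centre near -12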
Sa growth inh = blocks Staphylococcus aureus growth; S. aureus RN4220 growth, OD600, 20 h, 42 °C; active compounds read low; relative growth, % (no concentration beside the values); 0.53% of 170,000 active; AID 720641;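 active = growth at 42 °C up to 50% and 20 or more points under that at 30 °C, or under 10% at both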;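 note: 300 nL library stock went into each well; scaled to the means of positive and negative controls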
Sa growth inh second temp = second read-out of Sa growth inh, no call of its own (marks repeat the call); relative growth, %; measured here: growth at 30 °C;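 optical density after 20 h as mean of two plates; 100% = untreated growth and lower means inhibition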
Starred values were filed as active, the others as inactive; · = not tested or not shown. No enrichment for hits (roughly 0.8% active in at least one column).

SMILES	GIV-Gai inh	HCMV UL50-53 inh	Sa growth inh	Sa growth inh second temp
CCc1ccc(NC(=O)Cn2c(=O)n(CCc3ccccc3)c(=O)c3sc4ccccc4c32)cc1	102	-2	95	96
N#CC1=C(SCC(=O)Nc2ccc(Br)cc2)NC(=O)C(C#N)C12CCCCC2 (stereo not drawn)	100	-6	·	·
COc1cccc(CNC(=O)Cn2c(=O)n3nc(-c4cccc(C)c4)nc3c3ccccc32)c1	95	·	133	85
Cc1cccc(CNC(=O)CN2CC(C)Sc3ccccc32)c1 (stereo not drawn)	102	·	113	88
O=S(=O)(c1ccccc1)c1ccc(I)cc1	101	-12	109	74
Cc1ccc(-c2ccc(N3CCC(C(=O)NC4CCCC4)CC3)nn2)cc1	102	-18	·	·
COc1cc(/C=C2/SC(=Nc3ccccc3Cl)NC2=O)cc(OC)c1OC	105	-24	·	·
Cc1c(NC(=O)C2=Cc3sc4c(c3CS2)CCCC4)c(=O)n(-c2ccccc2)n1C	106	-48	·	·
O=C(Nc1ccc(N2CCOCC2)cc1)c1ccc2c(=O)n3c(nc2c1)CCC3	·	26	85	88
Nc1ccccc1SCC(=O)Nc1ccccc1	97	-24	97	82
COc1ccc(-c2noc(CCCn3c(=O)[nH]c4cc5c(cc4c3=O)OCO5)n2)cc1OC	111	5	·	·
CC(C)Cc1c(O)nc2n(c1=O)CCCS2	107	-16	·	·
N#C/C(=C\c1ccc(C#N)cc1)S(=O)(=O)c1ccccn1	100	2	93	89
COc1ccc2nc(Nc3sc4c(c3C(N)=O)CCCC4)sc2c1	131	-19	·	·
CCc1nc2ccccc2c(C(=O)Nc2cccc(Cl)c2)c1C	·	-14	109	94
Cc1cccc(-c2nc(SCC(=O)N3CCc4ccccc43)c3c(=O)n(C)c(=O)n(C)c3n2)c1	93	·	73	87
CCc1ccc(NCc2cc3cc(OC)c(OC)cc3n(CC(=O)Nc3ccc(F)cc3)c2=O)cc1	105	·	89	86
Cc1ccccc1CNC(=O)Cn1nc(C)c2nn(-c3ccc(Cl)cc3)c(C)c2c1=O	101	·	88	90
CCOC(=O)c1cn(C2CC2)c2c(F)c(F)c(F)cc2c1=O	·	2	117	79
Cc1ccn2nc(C(=O)OCC(=O)N(Cc3ccccc3)Cc3ccccc3)nc2n1	·	-15	103	94
COC(=O)c1ccccc1NC(=O)c1ncoc1-c1cccc(C)c1	110	-2	·	·
O=C(Cn1cnc2c(oc3ccccc32)c1=O)Nc1cccc(C(F)(F)F)c1	105	16	107	104
CC1(C(=O)O)CCC(c2nc3ccccc3[nH]2)C1(C)C (stereo not drawn)	·	-11	115	90
CCCc1cc(=O)[nH]c(-n2nc(C)cc2NC(=O)C2CC(=O)N(c3ccc(Cl)cc3)C2)n1 (stereo not drawn)	98	-1	·	·

Some of these compounds in order of length of the SMILES, lowest first:
SMILES	GIV-Gai inh	HCMV UL50-53 inh	Sa growth inh	Sa growth inh second temp
Nc1ccccc1SCC(=O)Nc1ccccc1	97	-24	97	82
CC(C)Cc1c(O)nc2n(c1=O)CCCS2	107	-16	·	·
O=S(=O)(c1ccccc1)c1ccc(I)cc1	101	-12	109	74
Cc1cccc(CNC(=O)CN2CC(C)Sc3ccccc32)c1 (stereo not drawn)	102	·	113	88
CCc1nc2ccccc2c(C(=O)Nc2cccc(Cl)c2)c1C	·	-14	109	94
CC1(C(=O)O)CCC(c2nc3ccccc3[nH]2)C1(C)C (stereo not drawn)	·	-11	115	90
COc1ccc2nc(Nc3sc4c(c3C(N)=O)CCCC4)sc2c1	131	-19	·	·
N#C/C(=C\c1ccc(C#N)cc1)S(=O)(=O)c1ccccn1	100	2	93	89
COc1cc(/C=C2/SC(=Nc3ccccc3Cl)NC2=O)cc(OC)c1OC	105	-24	·	·
O=C(Cn1cnc2c(oc3ccccc32)c1=O)Nc1cccc(C(F)(F)F)c1	105	16	107	104
Cc1ccn2nc(C(=O)OCC(=O)N(Cc3ccccc3)Cc3ccccc3)nc2n1	·	-15	103	94
N#CC1=C(SCC(=O)Nc2ccc(Br)cc2)NC(=O)C(C#N)C12CCCCC2 (stereo not drawn)	100	-6	·	·
Cc1ccccc1CNC(=O)Cn1nc(C)c2nn(-c3ccc(Cl)cc3)c(C)c2c1=O	101	·	88	90
Cc1c(NC(=O)C2=Cc3sc4c(c3CS2)CCCC4)c(=O)n(-c2ccccc2)n1C	106	-48	·	·
COc1ccc(-c2noc(CCCn3c(=O)[nH]c4cc5c(cc4c3=O)OCO5)n2)cc1OC	111	5	·	·
CCc1ccc(NCc2cc3cc(OC)c(OC)cc3n(CC(=O)Nc3ccc(F)cc3)c2=O)cc1	105	·	89	86
CCCc1cc(=O)[nH]c(-n2nc(C)cc2NC(=O)C2CC(=O)N(c3ccc(Cl)cc3)C2)n1 (stereo not drawn)	98	-1	·	·

Following part.
SMILES	GIV-Gai inh	HCMV UL50-53 inh	Sa growth inh	Sa growth inh second temp
O=C(Nc1ccc2nc3n(c(=O)c2c1)CCC3)Nc1ccccc1Br	99	0	·	·
CS(=O)(=O)N1CCN(c2ccc(Nc3nc4ccccc4nc3N3CCOCC3)cc2)CC1	100	-24	·	·
COc1ccc2c(c1)c1c(c(=O)n(Cc3ccccc3)c(=O)n1CC(=O)NCc1ccccc1Cl)n2C	105	-2	98	93
Cc1oc2ccc(NS(=O)(=O)c3ccc(F)cc3)cc2c1C(=O)O	108	25	124	114
Cc1ccc(OCCOCCn2c(-c3ccc(Cl)cc3)nc3ccccc3c2=O)cc1	103	-6	98	96
O=C(CN1CCOCC1)N1N=C(c2c(-c3ccccc3)c3cc(Cl)ccc3[nH]c2=O)CC1c1ccccc1 (stereo not drawn)	121	-5	·	·
CN(C1CCCCC1)S(=O)(=O)Cc1ccccc1	100	25	93	110
O=c1nc2n(c3ccsc13)CC(O)=C2c1nc2ccccc2[nH]1	·	9	95	94
O=C(N1CCN(c2ccccc2)CC1)C12CC3CC(CC(C3)C1)C2	·	-23	84	87
Cc1ccccc1-c1noc(-c2ccc(N3CCN(c4ccccc4)CC3)c([N+](=O)[O-])c2)n1	105	-24	100	86
COc1ccc(NC(=O)C2C3C4CCC(C4)C23)cc1 (stereo not drawn)	·	3	82	99
C=CC[n+]1c2n(c3ccc(F)c(F)c31)CCCCC2	·	-22	98	89
O=C(Nc1ccc2c(c1)oc1ccccc12)c1cccc(N2C(=O)CCC2=O)c1	111	-12	123	92
O=C(CSCc1cnn(-c2ccccc2)c1-n1cccc1)NC1CCCCCC1	107	-16	114	80
CCOC(=O)c1sc2nc(CSc3ccccc3)nc(Nc3ccn(C)n3)c2c1C	·	-35	73	95
Cc1oc(N)c(C#N)c1C	112	-10	89	98
COc1ccccc1NC(=O)C1CCN(S(=O)(=O)c2ccc3[nH]c4c(c3c2)CCCCC4)CC1	111	·	110	106
COc1cccc(CCNC(=O)Cn2c(=O)c(=O)n(C)c3ncccc32)c1	101	-18	·	·
CCC1CCCCN1C(=O)c1ccccc1F (stereo not drawn)	101	-21	99	96
C=CCSc1nnc2n1CCCN2C(=O)Nc1cccc(Cl)c1	102	-22	82	81
COc1ccc(S(=O)(=O)N2CN3CCN(C3)C2)cc1OC	111	-34	98	76
N=C1SC2CS(=O)(=O)CC2N1c1cccc(C(F)(F)F)c1 (stereo not drawn)	106	·	111	95
N#C/C(=C\NC1CCCCC1)S(=O)(=O)c1ccc(Cl)cc1	106	-2	105	78
Cc1csc2ncnc(N3CCN(C(=S)NCC4CC4)CC3)c12	106	-4	80	78
O=C(CSc1nnc(-c2ccco2)c(-c2ccco2)n1)N1c2ccccc2Sc2ccc(Cl)cc21	109	-57	61	47
CCN(CC)CCCNC(=O)C1=C(C)C(=O)OC12CCN(Cc1ccccc1)CC2	104	-7	·	·
CCCCCN1C(C(=O)c2ccccc2)=C(NC(=O)Cc2ccccc2)c2ccccc2S1(=O)=O	105	-21	·	·
COC(=O)c1ccc2c(=O)n3nc(NCc4ccccc4)sc3nc2c1	110	13	99	92
c1ccc2[nH]c(C3CCN(CC4OCCO4)CC3)nc2c1	104	-36	89	82
O=C(CSc1ncnc2c1cnn2-c1ccccc1)c1ccccc1	108	-22	105	91
COc1ccc(-n2nc(C(=O)N3CCN(c4cccc(C)c4C)CC3)c3c4ccccc4n(C)c3c2=O)cc1Cl	100	-20	107	96
COc1cccc(-n2c(=O)c3sc4ccccc4c3n(CC(=O)Nc3ccc(F)cc3F)c2=O)c1	96	-15	103	91
CCOC(=O)c1c(NC(=O)c2ccccc2C)sc2c1CCCC2	108	14	98	99
COc1ccc(-n2c(CNc3ccccc3Cl)nnc2SCC(N)=O)cc1	99	-8	98	80
c1ccc2c(c1)Oc1ccccc1S2	103	-21	90	81
CCSc1nc2c(c(=O)[nH]1)C1(CCCC1)Cc1ccccc1-2	101	·	97	91
CCn1ncc(Cl)c1C(=O)NC(C)c1ccccc1 (stereo not drawn)	98	4	96	92
C=C(C)Cn1c(SCC(=O)OCC)nc2c(c1=O)C1(CCCCC1)Cc1ccccc1-2	103	-7	·	·
COCCNc1cc(C)nc2c(-c3ccc(F)cc3)c(C(F)(F)F)nn12	103	13	·	·
CN(CCc1noc(-c2ccccc2Cl)n1)S(=O)(=O)c1cccc2nsnc12	100	-41	·	·
O=c1ccoc2ccc(Cl)cc12	103	-31	98	93
O=C(Nc1ccc(Nc2ccccc2)cc1)C1CC1	97	-5	103	83
N#CCc1csc(-c2ccccc2)n1	·	-40	106	99
CCCOC(=O)CSc1ncnc2sc(C)c(C)c12	104	-32	84	88
O=S(=O)(Nc1ccccc1)C(Nc1ccccc1)c1ccccc1F (stereo not drawn)	·	-4	111	99
CCOc1ccc(C(=O)Nc2ccc(-c3nc4ncccc4o3)cc2)cc1	99	-14	98	90
CC(=O)N1CCc2cc(S(=O)(=O)NC(CC(C)C)C(=O)NCc3ccccc3)ccc21 (stereo not drawn)	106	-30	103	86
COCCn1c(CCNC(=O)C(C)(C)C)nc2ccccc21	102	-22	·	·
CCCCN(C)c1ncc(C(=O)O)cc1NS(=O)(=O)c1cc(C)c(C)cc1C	112	-39	·	·
O=C(c1ccc2c(c1)OCCO2)N1CCC(c2nc(-c3ccc(S(=O)(=O)N4CCCC4)cc3)no2)CC1	100	17	·	·
CCN(CC)S(=O)(=O)c1cc(C(=O)OCC(=O)c2ccc3c(c2)NC(=O)CO3)ccc1Cl	·	-2	80	90
CCOc1ccc2[nH]c(=O)c(C(c3nnnn3CCOC)N3CCCCC3)cc2c1 (stereo not drawn)	·	-7	114	86
Cc1ccccc1C(=O)NCc1nc(-c2ccc(Cl)cc2)no1	107	-30	102	82
COc1ccc(-n2c(=O)c3ccc(C(=O)NCc4ccc(C)cc4)cc3n(CC(=O)Nc3ccc(F)cc3)c2=O)cc1	101	-19	104	89
CCCC(=O)Nc1c(C)nn(C(=O)CCC)c1C	106	-25	107	104
Cc1ccc(-c2noc(-c3cccnc3N(C)Cc3ccc(Cl)cc3)n2)cc1	101	-18	103	86
CN(C)Cc1nnnn1CCn1nnnc1CN(C)C	·	-5	95	90
Cc1ccc(S(=O)(=O)N2CCCCC2C(=O)NCCOc2ccccc2)cc1 (stereo not drawn)	·	-3	113	91
Cc1nc2cc(C(=O)O)ccc2n1-c1ccccc1	·	1	113	96
COC(=O)Cc1cnc(NC(=O)CSc2nc(C(C)C)cc(=O)[nH]2)s1	102	-18	86	80
CCOCC(=O)Nc1cc(C)cc(C)c1	105	-3	93	93
CCOC(=O)C(C(=O)c1ccccc1)C1(O)C(=O)c2ccccc2C1=O (stereo not drawn)	·	94*	92	88
COc1ccc2c(c1)c1c(c(=O)n(-c3ccc(OC)c(OC)c3)c(=O)n1CC(=O)N1CCCC1)n2C	108	·	76	82
